PINK1 modulator = modulators of PINK1 expression; PINK1 immunofluorescence, high-content cytometry, 24 h; AID 624263; hit rate 0.2% among 410,000; Potency, µM (titrated, usually from 76.6 µM), for the others: at the highest dose activation (PINK1 increase), actives largely listed as activators; active = well fitted activation curve with a large enough effect; inconclusive = small, poorly fitted or top-dose-only effect; inactive = flat fitted curve, though single readings scatter; cell line not stated here;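 further: potency means the concentration at half of the fitted maximal effect; % of control where 0% means no effect; nearly all actives have a fitted effect of over 65% in size; a mitochondrial uncoupler was the plate control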
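A stable cell line was treated with compounds at 5 concentrations for 24 hours, with CCCP as control. PINK1 levels and mitochondrial localization were measured by immunofluorescence with mitochondrial, cell and nuclear markers after fixation, read by laser-scanning cytometry.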
TRPML1 agonist = activates the human TRPML1 channel; activation, % (no concentration beside the values); TRPML1-expressing cells, Ca2+ dye fluorescence, FDSS; host cell line not named in the record; reference of the full effect not given here; hit rate 0.12% among 410,000; Q9GZU1; AID 624414; in the data active = activation above about 50%; inconclusive = about 30% to 50%; inactive = below about 30%; further: 0% is about no effect; the text of the record puts the active cut at 80%
Target sequence (Q9GZU1 whole entry, looked up): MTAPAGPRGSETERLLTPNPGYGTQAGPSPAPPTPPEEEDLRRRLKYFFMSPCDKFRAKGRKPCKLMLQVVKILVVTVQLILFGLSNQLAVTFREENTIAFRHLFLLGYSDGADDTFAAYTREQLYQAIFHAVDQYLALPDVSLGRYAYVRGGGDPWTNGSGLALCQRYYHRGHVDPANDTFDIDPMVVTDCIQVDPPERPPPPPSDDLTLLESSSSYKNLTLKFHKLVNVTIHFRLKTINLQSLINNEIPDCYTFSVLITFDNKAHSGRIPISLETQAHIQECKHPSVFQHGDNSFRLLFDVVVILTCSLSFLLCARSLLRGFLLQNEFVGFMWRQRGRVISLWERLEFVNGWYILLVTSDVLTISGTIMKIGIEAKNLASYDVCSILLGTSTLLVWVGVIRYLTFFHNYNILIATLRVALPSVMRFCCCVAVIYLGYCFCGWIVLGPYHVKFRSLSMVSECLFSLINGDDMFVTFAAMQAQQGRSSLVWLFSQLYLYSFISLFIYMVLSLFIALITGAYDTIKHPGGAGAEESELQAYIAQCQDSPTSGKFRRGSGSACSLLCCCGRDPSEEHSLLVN
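Agonist activity was taken from a 110 s kinetic Ca2+ dye read on the FDSS after pinning compounds onto TRPML1-DL cells. The cells were seeded at 1,500/well with Tet inducer, incubated about 16 h, then dye-loaded at room temperature.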
Menin MLL FP FL = menin-MLL binding inhibition, fluorescein peptide | Fluorescence polarization, fluorescein-MLL peptide displacement from menin | FP activity change, % at 61.4 µM | 290,000 tested, under 10 active | AID 1766; inconclusive = falling polarisation curve, or a change in total fluorescence; inactive = total fluorescence flat and polarisation flat or rising; no compound was filed as active; the % refers to the polarisation; negative = inhibition;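 further: % of control where 0% means no effect; inhibitors lower the polarisation; unlabelled MLL peptide was the positive control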
Sfp PPTase inh = inhibitors of Bacillus subtilis Sfp phosphopantetheinyl transferase. Q9F4F7. Biochemical Sfp PPTase activity, qHTS. Potency, µM, inactives show max response, negative = inhibition, most hits filed as inhibitors. hit rate 3.5% among 310,000; active means well fitted inhibition curve with a large enough effect; inconclusive means small, poorly fitted or top-dose-only effect, or another doubt; inactive means no such curve, though single readings can be large or run the other way;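 further: the enzyme is Sfp with the accession as filed and its product quenches rhodamine fluorescence; potency means the concentration at half of the fitted maximal effect; 0% = enzyme reaction without inhibitor and -100% = no enzyme wells; top concentration of the series not given in the record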
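Reaction rates are the 30-min fluorescence difference (ex 525, em 598 nm) in wells containing 15 nM Sfp, 5 uM rhodamine-CoA and 12.5 uM BHQ-2-YbbR at pH 7.6 with 10 mM MgCl2.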
ClpP mod = qHTS Assay for Activators of ClpP; purified B. subtilis ClpP, FRET peptide cleavage, 20 min; hit rate 1.9% among 340,000; Potency, µM (top dose mostly 57.5 µM), inactives show top-dose activity change, negative = active; active = well fitted falling curve with a large enough effect; inconclusive = small, poorly fitted or top-dose-only effect; inactive = no such curve, though single readings can be large or run the other way; further: potency means the concentration at half of the fitted maximal effect; the source files actives as falling curves though it sought activators and does not explain the sign; nearly all actives have a fitted effect of over 65% in size; many hits overshoot -100%
Target sequence (P80244 whole entry, looked up): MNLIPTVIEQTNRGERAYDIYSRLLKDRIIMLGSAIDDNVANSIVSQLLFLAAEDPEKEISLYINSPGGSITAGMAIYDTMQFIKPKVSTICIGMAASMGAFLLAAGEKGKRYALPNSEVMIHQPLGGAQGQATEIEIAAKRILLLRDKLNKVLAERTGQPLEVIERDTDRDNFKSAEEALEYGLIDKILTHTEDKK
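ClpP 10 microg/mL final, pH 8 Tris/KCl buffer with BSA, glycerol, Tween-20; compound pinned in; FRET-FV substrate; RT 20 min; Ex320/Em430; ΔFRET vs ADEP 5.8 microM, DMSO, no enzyme.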
TRPML1 blocker = blocks the human TRPML1 channel; Q9GZU1; TRPML1-inducible cells, Ca2+ dye fluorescence, FDSS; stronger effect = lower value; inhibition of EC80 agonist-evoked calcium signal; activity change, negative = inhibition, % (concentration not given with the values); hit rate 0.02% among 390,000; AID 624415; in the data active means activity change below about -50%; inconclusive means about -30% to -50%; inactive means above about -30%;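 further: stimulus is agonist 54-4 at its EC80 concentration; on the % scale 0 is the no-effect control and ±100 the full control effect; compound concentration not given in the record; the text of the record puts the active cut at -80%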
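Tet-induced TRPML1-DL cells loaded with Ca8 no-wash calcium dye were read kinetically on FDSS. Compound addition was followed by EC80 agonist 54-4 (4 uM final); inhibition was read over 110 s.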
TRPV1 potentiator = enhances activation of the human vanilloid receptor TRPV1; TRPV1-expressing cells, Fluo-8 calcium influx, capsaicin EC20 potentiation; host cell line not named in the record; control for the full effect not named in the record; potentiation, % at 8.33 µM; hit rate 0.02% among 320,000; AID 540277; active means potentiation above 80%; inconclusive means 30% to 80%; inactive means below 30%; further: 0% is about no effect
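Cells expressing TRPV1 were dye-loaded with Fluo-8 and read kinetically: 10 s baseline, 3 min after compound (agonist portion), then 2 min after EC20 capsaicin (allosteric enhancer portion). Calcium-bound dye fluorescence at 480/520 nm.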
An asterisk follows results filed as active; ? = inconclusive; . = no result given; [ ] = dose if it differs, or a comment.

SMILES	PINK1 modulator	TRPML1 agonist	Menin MLL FP FL	Sfp PPTase inh	ClpP mod	TRPML1 blocker	TRPV1 potentiator
CN(CC(=O)Nc1ccc(F)c(Cl)c1)S(=O)(=O)c1cccc2nsnc12	3.0%	1.6	3.4	2%	4.1%	-15	10
Cc1c(C(=O)O)[nH]c2c1C(=O)CC(c1ccc(Cl)cc1)C2 (configuration not stated)	.	-0.4	0.2	10%	0.7%	3	1
CC(C)CNC(=O)c1cccc(NC(=O)CCc2ccccc2)c1	-0.9%	7.1	1.7	-7%	-0.2%	31	6
COc1ccc(-c2nnn(CCc3nn[nH]n3)n2)cc1	-0.9%	-0.2	.	.	-3.5%	25	.
Cc1c(C(=O)N(C)c2ccccc2)sc2nc(-c3ccc(F)cc3)cn12	3.4%	2.1	.	.	-1.4%	2	.
CCc1ccccc1N=Cc1c(C)c(C#N)c2[nH]c3ccccc3n2c1=O	?	0.3	.	.	-2.1%	32	.
CC1CCC(N2CCN(S(C)(=O)=O)CC2)CC1 (configuration not stated)	-2.6%	-0.3	0.9	-26%	-0.1%	16	-8
Cc1coc2cc3oc(=O)cc(C)c3cc12	2.7%	1.4	1.8	-2%	?	-4	11
CCN(Cc1ccccc1)S(=O)(=O)c1ccc(C(=O)N(CCCN(C)C)c2nc3cc4c(cc3s2)OCO4)cc1	0.2%	0.6	.	56µM*	0.4%	-11	17
CC(=O)c1c(C)nc2ccccn12	0.4%	1.7	1.6	17%	-0.6%	-14	7
CCCS(=O)(=O)NC(=O)C1(C)CCCN(C(=O)c2cc(OC)c(OC)c(OC)c2)C1 (configuration not stated)	0.3%	-0.3	.	.	0.2%	.	.
COc1ccccc1NC(=O)Nc1ccnn1C1CCCCC1	-2.4%	-0.3	-0.2	2%	0.1%	-5	3
O=C(CNC(=O)c1ccc(Br)o1)NCc1ccc2c(c1)OCO2	-1.6%	-0.6	-0.6	16%	1.2%	-2	1
O=C(NCCOc1ccccc1Cl)c1cc(F)c(F)cc1Cl	2.2%	0.8	0.4	17%	-1.3%	20	-1
CC1CCN(C(C)C(=O)Nc2ccc(S(=O)(=O)N3CCCC3)cc2)CC1 (configuration not stated)	0.3%	0.4	.	.	-0.4%	-2	-5
Cc1ccc2nc(-c3ccc(NC(=O)CCN4C(=O)c5ccccc5C4=O)cc3)sc2c1	6.7%	-0.5	0.3	79µM*	54%	16	-24
Cc1csc(NC(=O)c2cc(-c3ccncc3)nc3ccccc23)n1	0.9%	-0.3	1.3	8%	.	3	2
O=C(NCc1cccnc1)C1CCC(CNS(=O)(=O)c2ccc(Cl)cc2)CC1 (configuration not stated)	-0.3%	0.5	1.1	-3%	-0.5%	38	-6
CCCn1c(=O)[nH]c(=O)c2c1nc(-c1ccc(OC(F)(F)C(F)C(F)(F)F)cc1)n2CCOC (configuration not stated)	20%	0.4	2.9	-3%	28µM*	5	-9
CN1CCN(c2ncc3nc(-c4ccc(Cl)cc4)c(=O)n(CCC#N)c3n2)CC1	-0.7%	.	-4.8	16%	.	.	.
COc1ccc(Br)cc1S(=O)(=O)N1CC(C)OC(C)C1 (configuration not stated)	3.4%	0.1	3.4	10%	1.6%	-12	1
CCOc1ccc(-c2cc(NC(=O)Nc3ccccc3Cl)c(C(=O)OC)s2)cc1	1.0%	-0.6	.	.	14µM*	2	.
COc1ccc(/C=C/c2nc3cc(-c4ccccc4)ccc3o2)cc1O	12%	0.5	.	-25%	13µM*	13	-17
Cc1ccc2cc(CN(CC3CCCO3)S(=O)(=O)c3c(C)ccc4nsnc34)c(=O)[nH]c2c1 (configuration not stated)	0.2%[38.3 µM]	2.9	2.6	0%	-1.1%	6	4
CCC(=O)NNc1cccc(Cl)n1	3.2%	-0.2	-1.1	1%	-2.1%	-5	0

Shown as a hit in Sfp PPTase inh, of those listed so far:
molecule | PINK1 modulator | Menin MLL FP FL | Sfp PPTase inh | TRPML1 blocker
CCN(Cc1ccccc1)S(=O)(=O)c1ccc(C(=O)N(CCCN(C)C)c2nc3cc4c(cc3s2)OCO4)cc1 | 0.2% | . | 56µM* | -11
Cc1ccc2nc(-c3ccc(NC(=O)CCN4C(=O)c5ccccc5C4=O)cc3)sc2c1 | 6.7% | 0.3 | 79µM* | 16

(more compounds)
SMILES	PINK1 modulator	TRPML1 agonist	Menin MLL FP FL	Sfp PPTase inh	ClpP mod	TRPML1 blocker	TRPV1 potentiator
O=S(=O)(Nc1ccc(-c2nc3cccnc3s2)cc1)c1cccs1	6.1%	0.0	3.2	9%	3.6%	-5	2
CCCc1nc2ccccc2c(=O)n1-c1ccc(C(=O)OCC)cc1	0.3%	0.0	-0.5	20%	-20%	-2	-4
CCN1CCN(c2nc(Nc3ccc(OC)cc3)nc(N)c2[N+](=O)[O-])CC1	-1.5%	0.5	2.3	10%	.	1	.
O=C(CCSc1ccc(Br)cc1)c1ccc(O)cc1	12%	-0.4	-6.0	8%	1.0%	9	-17
Cc1cccc(NC(=O)CC2C(=O)OCCN2Cc2ccccc2)c1 (configuration not stated)	2.4%	0.6	.	.	0.8%	8	.
CCCCNc1cc(=O)n(C)c(=O)[nH]1	0.1%	0.5	0.7	-1%	-3.0%	-5	4
CCCCSc1nnc(NC(=O)CCc2ccccc2)s1	-0.8%	1.6	-0.5	10%	1.9%	27	10
CC(=O)C1=CCC(c2ccc(Cl)cc2)N(S(=O)(=O)c2ccccc2C)C1 (configuration not stated)	0.8%	0.9	.	.	-3.3%	70	.
CCOC(=O)C(NC(=O)c1ccc(OC)cc1)(Nc1cc(C)on1)C(F)(F)F (configuration not stated)	0.7%	-0.2	3.1	11%	-3.9%	-2	-5
COc1ccccc1CN(C)C(=O)c1cc(C)nc2ccccc12	-3.1%	2.1	1.3	4%	.	-15	3
CC1(C(=O)Nc2ccc(Cl)c(Cl)c2)CCN1C(=O)Cc1cccc2ccccc12 (configuration not stated)	1.0%	0.2	.	.	-10%	28	.
CCOC(=O)c1c(C)[nH]c(C)c1S(=O)(=O)NCC(=O)NCc1cccc(C)c1	1.0%	0.1	.	.	0.2%	-2	.
CN(c1ccccc1)S(=O)(=O)c1cccc(C(=O)Nc2nn[nH]n2)c1	0.1%	-0.3	-0.8	-1%	.	-4	-1
O=C(COc1cc(Cl)c(Cl)cc1Cl)NC(=O)Nc1ccc2c(c1)OCCO2	?	0.3	10	6%	0.8%	21	9
Cc1cccn2c(N)c(-c3ccccc3)nc12	0.2%	-0.1	0.9	0%	16µM*	4	-20
Cc1ccccc1NC(=O)COC(=O)c1cccc(S(=O)(=O)N2CCCCC2)c1	1.9%	-0.4	.	.	-1.5%	-10	4
CCCCOc1ccc(C(=O)Nc2ccc(-c3nc4ccccc4s3)cc2C)cc1	-0.5%	0.8	.	.	-9.1%	-4	.
COc1ccc(OC)c(C(=O)c2coc3cc(Br)c(O)c(Br)c23)c1	-1.8%	0.6	.	.	-2.6%	5	.
COc1ccc(C2=NS(=O)(=O)N(C)C(C(=O)Nc3ccc(F)cc3F)=C2)cc1	2.5%	0.4	2.6	2%	-1.3%	-2	-10
CCOC(=O)C1C(=O)C=C(c2ccc(C)cc2)CC1c1cccc([N+](=O)[O-])c1 (configuration not stated)	7.7%	-0.6	2.2	-2%	-1.3%	-11	-8
CC1CCCCC1NC(=O)COC(=O)c1ccc2ccccc2n1 (configuration not stated)	0.1%	-0.4	?	13%	-5.0%	2	-3
O=c1c2ccccc2nc(-c2ccc(F)cc2)n1NCc1ccccc1O	3.0%	-0.1	0.0	9%	1.5%	-4	0
Cc1ccc(NC(=O)C2CCN(S(=O)(=O)c3ccc4[nH]c(=O)ccc4c3)CC2)cc1C	11%	0.4	.	.	-2.9%	9	.
CC1=C([N+](=O)[O-])C(c2ccccc2)NC(=O)N1 (configuration not stated)	0.6%	0.0	-8.6	9%	0.0%	2	-2
COc1ccc(CCC2=NCCN2C(CC(C)C)c2nc3ccccc3[nH]2)cc1 (configuration not stated)	-0.2%	-0.6	.	.	0.7%	.	.

The last 3 entries of the part above come first, to join the parts:
SMILES	PINK1 modulator	TRPML1 agonist	Menin MLL FP FL	Sfp PPTase inh	ClpP mod	TRPML1 blocker	TRPV1 potentiator
Cc1ccc(NC(=O)C2CCN(S(=O)(=O)c3ccc4[nH]c(=O)ccc4c3)CC2)cc1C	11%	0.4	.	.	-2.9%	9	.
CC1=C([N+](=O)[O-])C(c2ccccc2)NC(=O)N1 (configuration not stated)	0.6%	0.0	-8.6	9%	0.0%	2	-2
COc1ccc(CCC2=NCCN2C(CC(C)C)c2nc3ccccc3[nH]2)cc1 (configuration not stated)	-0.2%	-0.6	.	.	0.7%	.	.
CCCC(C)C(=O)Nc1ccc(S(N)(=O)=O)cc1 (configuration not stated)	0.7%	-0.2	-0.2	-2%	.	0	-17
CCOC(=O)c1c(NC(=O)/C=C\C(=O)O)sc(C)c1-c1ccccc1	-0.4%	1.9	3.7	20%	.	8	10
COc1ccc(N(CC(=O)Nc2cccc([N+](=O)[O-])c2C)S(C)(=O)=O)cc1OC	-1.2%	0.7	3.5	5%	-1.5%	41	-3
CC(=O)OC1CCC2(C)C(CCC3C2CC(=O)C2(C)C3CC(C(C(C)=O)C(C)=O)C2C(C)=O)C1 (configuration not stated)	0.0%	-0.4	.	.	.	-11	.
Cc1cccc(CCNC(=O)c2c[nH]c3ccc(S(=O)(=O)Nc4ccccc4F)cc3c2=O)c1	0.8%	2.3	.	.	-8.3%	35	.
Cc1cc(S(=O)(=O)Nc2c(C)nc3nc[nH]n3c2=O)ccc1F	0.9%	0.6	4.3	7%	.	11	-1
O=C(Nc1ccc(OC(F)F)cc1)c1cc(S(=O)(=O)N2CCCCC2)ccc1N1CCOCC1	1.0%	0.5	.	.	-0.4%	16	19
Clc1cccc(-c2nnc(CN3CCN(c4ccccn4)CC3)o2)c1	5.3%	2.6	.	.	-1.1%	-18	.
COc1ccc(NS(=O)(=O)c2cccc(C(=O)NN=Cc3cc(Br)c(O)c(Br)c3)c2)cc1	-0.7%	1.2	.	.	.	-5	.
C=CCn1c(SCC(=O)c2ccc(O)c(O)c2)nnc1-c1cccc(C)c1	0.9%	-1.0	.	.	-0.3%	33	-1
O=C(O)[C@@H]1CCCN1C(=O)c1ccco1	0.3%	2.0	2.0	?	-2.0%	58	8
COc1cccc(Nc2nnc(SCN3C(=O)c4ccccc4C3=O)s2)c1	24%	1.3	5.1	11%	1.4%	29	-3
COC(=O)C1SCC2C(=O)N(Cc3ccc(Cl)cc3)CC(=O)N21 (configuration not stated)	-1.3%	-0.6	1.9	9%	.	-3	5

Source: PubChem
